High-throughput results from PubChem.
VDR inhibitor = blocks the human vitamin D receptor | P11473 | Potency, µM, for inactives: max response, negative = inhibition, most hits filed as inhibitors | 400,000 tested, 0.93% active | AID 504847 | VDR-SRC2-3 peptide fluorescence polarization, 2 h; active means well fitted inhibition curve with a large enough effect; inconclusive means small, poorly fitted or top-dose-only effect, or another doubt; inactive means no such curve, though single readings can be large or run the other way; further: series mostly up to about 120 µM
Target sequence (P11473 whole entry, looked up): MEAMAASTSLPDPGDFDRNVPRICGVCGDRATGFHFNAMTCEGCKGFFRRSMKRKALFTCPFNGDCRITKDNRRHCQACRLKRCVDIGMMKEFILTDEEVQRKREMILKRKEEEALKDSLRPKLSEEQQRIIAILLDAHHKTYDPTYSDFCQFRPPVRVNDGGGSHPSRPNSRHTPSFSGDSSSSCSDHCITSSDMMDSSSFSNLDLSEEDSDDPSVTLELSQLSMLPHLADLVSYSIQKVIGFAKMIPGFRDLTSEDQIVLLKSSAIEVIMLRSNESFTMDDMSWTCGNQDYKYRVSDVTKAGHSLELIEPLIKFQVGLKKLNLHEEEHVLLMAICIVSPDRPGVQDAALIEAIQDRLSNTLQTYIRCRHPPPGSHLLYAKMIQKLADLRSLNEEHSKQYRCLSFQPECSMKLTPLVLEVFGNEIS
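Two reagent solutions held at 4 deg C in the dark were dispensed, compounds pinned at 23 nl, and the mixture incubated 2 h at room temperature. Read-out: fluorescence polarization of VDR–SRC2-3 peptide binding.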
* = called active by the depositor; ? = inconclusive; & = joins results of further samples. On the % scale 0 is the no-effect control and ±100 the full control effect; potency means the concentration at half of the fitted maximal effect.

SMILES	VDR inhibitor
N#Cc1ccccc1COC(=O)c1ccc2c(c1)OCO2	25%
CCNC(=O)c1c(NC(=O)Cc2coc3ccc(CC)cc23)sc2c1CCCC2	11%
O=C(NCCO)c1cc2ccccc2c(=O)s1	6%
CCOc1ccc(C(=O)NCCN(C)C)cc1	7%
O=C1/C(=C\c2ccc(Cl)cc2)CCC1CNc1ccc(Cl)cc1 (stereo not given)	?
O=C(Nc1ccccc1)Nc1n[nH]c2nnc(-c3ccccc3)c(-c3ccccc3)c12	-17%
Cc1ccc2c(=O)cc(C(=O)Nc3sc4c(c3C(=O)NCc3ccccc3)CCCC4)oc2c1C	2%
O=C(CN1C(=O)NC2(CCCC2)C1=O)N1CCN(S(=O)(=O)c2cccc(C(F)(F)F)c2)CC1	2%
CN1CCCC(OC(=O)c2ccc(C#N)cc2)C1 (stereo not given)	20%
CCOc1ccccc1N1CCN(C(=O)NCc2ccc(C)cc2)CC1	2%
O=C(CSc1nc2ccccc2c(=O)n1-c1ccccc1)N1CCC1	3%
CCC1Nc2ncnc(N3CCN(c4ccccc4)CC3)c2N(Cc2ccc(Cl)cc2)C1=O (stereo not given)	-4%
CC(C)OC(=O)CN1C(=O)c2ccccc2C1=O	-6%
CC(=O)N(CCN(C)C)c1nc2cc3c(cc2s1)OCCO3	4%
CCc1ccc(C(=O)NC(C(=O)O)C(C)C)cc1 (stereo not given)	-1%
CCOC(=O)CSc1nc2ccccc2c(=O)n1C	2%
Cn1c(=O)[nH]c(=O)c2c1nc(SCCN1CCOCC1)n2CCCc1ccccc1	-16%
CN(C(=O)COC(=O)C1CCN(S(=O)(=O)c2ccc3c(c2)OCCO3)CC1)C1CCCCC1	7%
CCn1c(C)c(C)c2cc(C(=O)NCCc3ccc(C)cc3)ccc21	6%
COc1ccc(CNC(=O)c2sc3nc[nH]c(=O)c3c2C)cc1	18%
COc1ccc(C(=O)NNC(=O)CCc2nc3ccccc3c(=O)[nH]2)cc1	1%
Cc1ccc(/C=N/NS(=O)(=O)c2ccc([N+](=O)[O-])cc2)o1	-11%
O=C(CN1CCN(C(=O)c2ccccc2)CC1)Nc1ncc(Br)cc1Br	1%
CCc1ccc2occ(CC(=O)Nc3nnc(SC)s3)c2c1	18%
CCOc1cc(N2CCOCC2)c(OCC)cc1NC(=O)c1ccc(S(C)(=O)=O)cc1	-5%
CCc1nnc(NC(=O)CN2C(=O)/C(=C/c3cc(OC)c(OC)c(OC)c3)SC2=S)s1	?
COc1ccc(NC(=O)CSCC(=O)Nc2cccc3ncccc23)cc1	-16%
CN(C)c1ccc(C(C(=O)NC(C)(C)C)N(C(=O)c2csnn2)C2CC2)cc1 (stereo not given)	5%
COc1ccc(OC)c(NC(=O)C2CC(=O)n3ncnc3N2)c1 (stereo not given)	11%
COc1ccc(CC(=O)Nc2ccc(S(=O)(=O)N3CCN(C)CC3)cc2)cc1	-17%
CN(Cc1cn(C)nc1-c1ccccc1F)CC1CCCCO1 (stereo not given)	-19%
COc1ccc(CNC(=O)CN(c2ccc(OC)cc2)S(=O)(=O)c2c(C)[nH]c(=O)[nH]c2=O)cc1	10%&-3%
CCSc1nc(C)cc(C)c1S(=O)(=O)c1ccccc1C	5%
CCCOc1ccc(N2C(=O)C3C(C(C)C)NC4(C(=O)c5ccccc5C4=O)C3C2=O)cc1 (stereo not given)	4%
CN(C)S(=O)(=O)c1ccc2oc(SCC(=O)Nc3ccccc3F)nc2c1	2%
O=C(O)c1ccc(COc2cccc(CO)c2)cc1	-3%
CSc1ccc(Cn2nnc(C(=O)Nc3ccc(C)c(C)c3)c2N)cc1	?
O=C(Oc1ccccc1)N1CCC[C@@]2(CCN(c3ccccn3)C2)C1	6%
CCOC(=O)N1CCC(N(CCOC)C(=O)Nc2ccc(Cl)cc2)CC1	7%
COc1ccc(C2C(C#N)=C(N)N(c3ccccc3C#N)C3=C2C(=O)CCC3)cc1CN1CCCC1 (stereo not given)	-10%
CC(C)N1CCN(c2ccc(C(=O)c3c(-c4ccc(O)cc4)sc4cc(O)ccc34)cc2)CC1	5%
C#CCOCCOCCOCCNc1nc(N2CCN(C(=O)[C@H](CCCCN)n3cc(CN)nn3)CC2)nc(N2CCN(C(=O)[C@H](CCCCN)n3cc(CN)nn3)CC2)n1	2%
O=C(NCc1ccc(Cl)cc1)C1CCCN(c2ncnc3onc(-c4ccc(F)cc4)c23)C1 (stereo not given)	13%
Cc1ccc(S(=O)(=O)NC2CC(C)(C)NC(C)(C)C2)c(C)c1C	17%
CSCCNC(=O)c1ccc(OC2CCN(CCc3ccccc3)CC2)cc1	-15%
Cc1cc2c(cc1C)C(c1cc(Br)ccc1F)CC(=O)N2 (stereo not given)	-1%
O=C(NC(c1ccccc1)c1ccccc1)c1ccc(S(=O)(=O)C(F)F)cc1	1%
FC(F)(F)c1cnc(Sc2nc3nccc(-c4ccc(Cl)cc4)n3n2)c(Cl)c1	14%
COc1ccc(C(=O)CCC(=O)N2CCN(c3cc(C)ccc3C)CC2)cc1	-23%
CN1CCN(C(=O)CC2(CC(=O)O)CCCC2)CC1	-9%
CCOC(=O)c1cc(NC(=O)Nc2ccccc2OC)c(C)nc1C	15%
CC1=CN2C(=N)/C(=C/c3ccc([N+](=O)[O-])o3)C(=O)N=C2S1	?
Cc1ccc(OCCn2nnc3sc4c(c3c2=O)CCC(C(C)(C)C)C4)cc1 (stereo not given)	5%
CCCOc1ccc(-c2nc(C#N)c(N3CCN(C)CC3)o2)cc1	18%
O=C(CCSCCc1ccccn1)Nc1ccc(Cc2ccncc2)cc1	-10%
O=S(=O)(NC1CCCC1)c1ccc(S(=O)(=O)N2CCCN(Cc3ccccc3)C2)cc1	-6%
COc1ccc(S(=O)(=O)NCCc2cn3cccc(C)c3n2)cc1OC	-16%
Cc1ccc(S(=O)(=O)NCCCCCC(=O)Nc2ccccn2)cc1	-11%
CCc1c(C)nc(N2CCN(Cc3ccccc3)CC2)[nH]c1=O	5%
C=CCC1CCC/C(=N\NS(=O)(=O)c2ccc(C)cc2)C1 (stereo not given)	23%

Next section.
SMILES	VDR inhibitor
Cc1cccc(C)c1OC(=O)CSc1nnc(-c2ccccc2O)o1	-7%
CCC(C)NC(=O)C1(C)CCC(=O)N1CCc1ccc(OC)c(OC)c1 (stereo not given)	-2%
O=C(CNCc1ccc(F)cc1)Nc1cc(S(=O)(=O)N2CCOCC2)ccc1Cl	-7%
Cc1c(NS(=O)(=O)c2cccc(C(=O)O)c2)c(=O)n(-c2ccccc2)n1C	3%&-13%
CN1CCN(C2Cc3ccccc3Sc3ccc(Cl)cc32)CC1 (stereo not given)	?
O=C1CN(C(=O)CSc2nncn2-c2ccccc2)c2ccccc2N1	-10%
Cc1cc(C)c(C(=O)CC(=O)c2cccnc2)c(C)c1	-5%
COc1ccccc1CNC(=O)C(=O)NCC1CCCN1S(=O)(=O)c1cccs1 (stereo not given)	-5%
Cc1ccc(S(=O)(=O)N(C)CC(=O)OCC(=O)NC(c2ccccc2)c2ccccc2)cc1	-3%
COC(=O)CSc1nnc(CNC(=O)c2cccs2)n1-c1cccc(C)c1	-7%
CCC1CCCCN1CCCNC(=O)c1ccc2c(c1)c(C)c(C)n2CC (stereo not given)	5%&5%
CCOC(=O)CNC(=O)c1ccc(Br)s1	22%

Fetched by structure from the entries so far:
SMILES	VDR inhibitor
Cc1c(NS(=O)(=O)c2cccc(C(=O)O)c2)c(=O)n(-c2ccccc2)n1C	3%&-13%
CCC(C)NC(=O)C1(C)CCC(=O)N1CCc1ccc(OC)c(OC)c1 (stereo not given)	-2%

The main list resumes; the 4 compounds before the break are reprinted first.
SMILES	VDR inhibitor
Cc1ccc(S(=O)(=O)N(C)CC(=O)OCC(=O)NC(c2ccccc2)c2ccccc2)cc1	-3%
COC(=O)CSc1nnc(CNC(=O)c2cccs2)n1-c1cccc(C)c1	-7%
CCC1CCCCN1CCCNC(=O)c1ccc2c(c1)c(C)c(C)n2CC (stereo not given)	5%&5%
CCOC(=O)CNC(=O)c1ccc(Br)s1	22%
C/C(=N\NC(=O)CNc1ccccc1Cl)C(C)(C)C	0%
CC1CC(C)CN(C(=O)c2nn(C)c3c2CS(=O)(=O)c2ccccc2-3)C1 (stereo not given)	-26%
CCc1cccc(C)c1NC(=O)CN1CCN(S(=O)(=O)c2ccc(C(C)(C)C)cc2)CC1	3%
O=C(Nc1ccc(OC(F)(F)F)cc1)C1CC(c2ccc(F)cc2)=NO1 (stereo not given)	-13%
O=C(OCn1nnc2ccccc2c1=O)c1cc2ccccc2o1	-21%
COc1cc2ccccc2cc1C(=O)N(CCN(C)C)c1nc2ccc(Br)cc2s1	12%
COc1cccc(CNC(=O)CCNC(=O)c2ccccc2OC)c1	?
CC(=O)C1C(c2ccc(C)cc2)c2c(n[nH]c2C)CC1(C)O (stereo not given)	-2%
N#Cc1c(N)c(C(=O)c2ccccc2)n2c1CCCC2	-4%
CCN(Cc1ccccc1)C(=O)Cn1c(=O)n(CC(=O)N2CCCCC2)c(=O)c2sccc21	5%
Cc1ccc(CC(=O)N2CC(C)OC(C)C2)cc1 (stereo not given)	11%
COc1cc(C)c(S(=O)(=O)Nc2ccccc2F)cc1C	2%
CN1/C(=C\C(=O)COC(=O)c2ccccc2O)C(C)(C)c2ccccc21	4%
COc1ccc(-n2c(SCc3ccccc3F)nc3c([nH]c4ccccc43)c2=O)cc1	-1%
CSc1nc(-c2ccco2)nn1C(=O)c1ccc(C)cc1	-22%
O=C(Nc1ccc2oc(-c3cccnc3)nc2c1)c1ccc(-c2ccc(Cl)cc2)o1	?
Cn1c2c(c3cnc4cc(Cl)ccc4c31)CN(Cc1ccc(Cl)cc1)CC2	11%
N/C(Cc1ccc([N+](=O)[O-])cc1)=N\OC(=O)c1ccco1	2%
CCOC(=O)C1(Cc2ccc(Cl)cc2)CCN(C(=O)C2=NNC(=O)CC2)CC1	-5%
O=c1[nH]cc(I)cc1I	-10%
O=C(CSc1cccc[n+]1[O-])NCCCc1ccccc1	-17%
O=C(Oc1ccc(C(=S)N2CCOCC2)cc1)c1cc([N+](=O)[O-])cc([N+](=O)[O-])c1	-27%
Cc1cc(C)nc(Nc2n[nH]c(-c3ccccc3C)n2)n1	-18%
COc1cccc(CNC(=O)CCC2CCCN(C(=O)c3cc(C)[nH]n3)C2)c1 (stereo not given)	8%

Reprinted from the part before: six entries; new compounds follow.
SMILES	VDR inhibitor
CCOC(=O)C1(Cc2ccc(Cl)cc2)CCN(C(=O)C2=NNC(=O)CC2)CC1	-5%
O=c1[nH]cc(I)cc1I	-10%
O=C(CSc1cccc[n+]1[O-])NCCCc1ccccc1	-17%
O=C(Oc1ccc(C(=S)N2CCOCC2)cc1)c1cc([N+](=O)[O-])cc([N+](=O)[O-])c1	-27%
Cc1cc(C)nc(Nc2n[nH]c(-c3ccccc3C)n2)n1	-18%
COc1cccc(CNC(=O)CCC2CCCN(C(=O)c3cc(C)[nH]n3)C2)c1 (stereo not given)	8%
O=C(N=C1N=C2C=CC(Br)=CN2Cc2ccccc21)c1ccc([N+](=O)[O-])cc1[N+](=O)[O-]	11%
COCCNC(=O)COCc1cc(-c2ccc3c(c2)OCO3)on1	-16%
O=C1C2C3CCC(C3)C2C(=O)N1c1ccc(OS(=O)(=O)c2ccccc2)cc1 (stereo not given)	9%
CCOC(=O)c1cc(CC)sc1NC(=O)c1cc(OCC)c(OCC)c(OCC)c1	?
CCc1ccc(NC(=O)CSc2nnc(Cc3cccn3C)n2-c2ccc(OC)cc2)cc1	2%
CCOC(=O)C(=O)Nc1ccc(S(=O)(=O)N2CCOCC2)cc1OC	16%
Cc1oc(-c2cccc(C(F)(F)F)c2)nc1CN1CCN(c2ccccn2)CC1	-6%
COc1cccc(CN2C(=NC(=O)C3CC3)SC3CS(=O)(=O)CC32)c1 (stereo not given)	-14%
CCCCNC(=O)CCC(=O)Nc1ccc2nc(N3CCCCC3)cc(C)c2c1	-2%
Oc1ccc(N=Cc2c(O)ccc3ccccc23)cc1	-12%
CCSc1nc(C)nc2sc(C)c(C)c12	-17%
CCOCc1nnc(NC(=O)COC)s1	-2%
CCN(CC)c1nc(N2CCN(C)CC2)nc2ccccc12	5%
C(=C\c1ccncc1)/c1ccccc1	-7%&-1%
CCN(C(=O)CCS(=O)(=O)c1cc2[nH]c(=O)c(=O)[nH]c2cc1C)c1ccccc1	7%
O=C(Cn1c2ncccc2c(=O)n1-c1ccccc1)Nc1ccc(Cl)cc1C(F)(F)F	22%
CCOc1ccc(S(=O)(=O)n2nc(C)cc2C)cc1	-17%
N#CC1CN(C(c2ccccc2)c2ccccc2)C1	2%
CCOc1ccc(N2CC(c3nc(-c4cc(OC)c(OC)c(OC)c4)no3)CC2=O)cc1 (stereo not given)	0%
CSc1nc(N(C)C)nc(N(C#N)CCOC(C)=O)n1	-4%
O=C(CS(=O)(=O)c1ccc(F)cc1)Nc1nnc(-c2cccs2)o1	-15%
Cc1nc(C)c(C(=O)Nc2ccc(C)c(F)c2)o1	5%
CCN(CC)c1ccc(/C=N\NC(N)=O)cc1	-1%
CC(C)(Oc1ccc(Cl)cc1)C(=O)NCc1n[nH]c(=O)c2ccccc12	-8%
C[C@]12c3[nH]c4cc(-c5ccco5)ccc4c3CCN1C(=O)[C@@H](CC(=O)NCC13CC4CC(CC(C4)C1)C3)C[C@@H]2C(=O)N1CCCCC1	-11%
COC(=O)CCSc1cc([N+](=O)[O-])cc2c1c(C1OCCO1)nn2-c1ccccc1	-29%
COc1ccccc1NS(=O)(=O)/C=C/c1ccccc1	-6%
COc1ccc(OCCOCC(O)CN2CCOCC2)cc1 (stereo not given)	7%
CN(C)/C=C1\C(=O)Nc2ccccc21	-3%
CC(=O)C1=C(C)N(Cc2ccccc2)C(=O)N[C@H]1CCc1ccccc1	5%&4%
CCCc1nc([N+](=O)[O-])c(S(=O)(=O)c2ccccc2)n1CC(C)C	-15%
CC1CN(c2cc(-c3ccccc3)c3ccccc3n2)CC(C)O1 (stereo not given)	2%
O=S(=O)(c1ccc(Cl)cc1)c1nc(-c2ccccc2)oc1N1CCN(c2ccccc2)CC1	-6%

These rows are one share of the data; count on the stated rates, not on these rows.
